Screening data (PubChem BioAssay)
FGF22 binding: shifts melting point of recombinant human FGF22; Q9HCT0; 340,000 compounds, 1.5% hits; calls only at 9.99 µM; AID 651658; recombinant FGF22 thermal shift, SYPRO orange fluorescence; percent of sucrose octasulfate shift, DMSO zero;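 active means melting point raised past a set limit in the mean and every replicate; three in four hits are not shown here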
ALR inh: human ALR oxidase inhibition via reduced H2O2. inhibition, % (no concentration beside the values). purified ALR, DTT oxidation, H2O2 HRP-luminol luminescence. P55789. AID 485317. 290,000 compounds, 3.8% hits;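 active means mean and each replicate at 75% or more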;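 further: stock transfer was 7.5 nL into about 7.5 µL; 0% = neutral wells and 100% = wells with inactivated enzyme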
UCH37 inh: blocks the human deubiquitinase UCH37 | Q9Y5K5 | purified proteasome/UCH37, Ub-AMC cleavage fluorescence | inhibition, % (no concentration beside the values) | 330,000 compounds, 0.33% hits;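 active means mean of two replicates above 20%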;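 further: 0% = compound-free wells with enzyme and 100% = wells lacking proteasome; stock transfer was 100 nL into about 20 µL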
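Signal – fluorescence, ex 355 nm, em 460 nm · System – Proteasome-bound UCH37 · Input – 0.15 nM proteasome as dispensed · Timing – 30 min preincubation with enzyme, 25 min cleavage at room temperature · Read-out basis – percent inhibition of cleavage signal versus uninhibited and no-proteasome wells · Medium – Tris-HCl pH 7.4 with ATP-MgCl2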
Ecoli growth: E. coli growth inhibition; AID 1053175; OD600 absorbance (concentration not given with the values); Escherichia coli growth, OD600, 23 h; active compounds read low; 330,000 compounds, 0.21% hits;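 active means OD600 absorbance below the run mean of sample wells minus 3.6 SD, in any replicate, cut at about 0.56 in these data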;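 further: stock transfer was 300 nL into about 60 µL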
LANA-H2B inh: blocks KSHV LANA binding to histone H2A/H2B; cell-free LANA-H2A/H2B peptide, fluorescence polarization; inhibition, % (no concentration beside the values); 320,000 compounds, 0.6% hits; in the data active means inhibition mostly above about 10%, no sharp cut-off; inactive means mostly below about 6.7%;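 further: stock transfer was 7.5 nL into about 10 µL; 0% = median of vehicle wells and 100% = median of positive control wells; one replicate is shown; the record names a cut of 25% in any replicate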
Target sequence (Q9QR71 whole entry, looked up): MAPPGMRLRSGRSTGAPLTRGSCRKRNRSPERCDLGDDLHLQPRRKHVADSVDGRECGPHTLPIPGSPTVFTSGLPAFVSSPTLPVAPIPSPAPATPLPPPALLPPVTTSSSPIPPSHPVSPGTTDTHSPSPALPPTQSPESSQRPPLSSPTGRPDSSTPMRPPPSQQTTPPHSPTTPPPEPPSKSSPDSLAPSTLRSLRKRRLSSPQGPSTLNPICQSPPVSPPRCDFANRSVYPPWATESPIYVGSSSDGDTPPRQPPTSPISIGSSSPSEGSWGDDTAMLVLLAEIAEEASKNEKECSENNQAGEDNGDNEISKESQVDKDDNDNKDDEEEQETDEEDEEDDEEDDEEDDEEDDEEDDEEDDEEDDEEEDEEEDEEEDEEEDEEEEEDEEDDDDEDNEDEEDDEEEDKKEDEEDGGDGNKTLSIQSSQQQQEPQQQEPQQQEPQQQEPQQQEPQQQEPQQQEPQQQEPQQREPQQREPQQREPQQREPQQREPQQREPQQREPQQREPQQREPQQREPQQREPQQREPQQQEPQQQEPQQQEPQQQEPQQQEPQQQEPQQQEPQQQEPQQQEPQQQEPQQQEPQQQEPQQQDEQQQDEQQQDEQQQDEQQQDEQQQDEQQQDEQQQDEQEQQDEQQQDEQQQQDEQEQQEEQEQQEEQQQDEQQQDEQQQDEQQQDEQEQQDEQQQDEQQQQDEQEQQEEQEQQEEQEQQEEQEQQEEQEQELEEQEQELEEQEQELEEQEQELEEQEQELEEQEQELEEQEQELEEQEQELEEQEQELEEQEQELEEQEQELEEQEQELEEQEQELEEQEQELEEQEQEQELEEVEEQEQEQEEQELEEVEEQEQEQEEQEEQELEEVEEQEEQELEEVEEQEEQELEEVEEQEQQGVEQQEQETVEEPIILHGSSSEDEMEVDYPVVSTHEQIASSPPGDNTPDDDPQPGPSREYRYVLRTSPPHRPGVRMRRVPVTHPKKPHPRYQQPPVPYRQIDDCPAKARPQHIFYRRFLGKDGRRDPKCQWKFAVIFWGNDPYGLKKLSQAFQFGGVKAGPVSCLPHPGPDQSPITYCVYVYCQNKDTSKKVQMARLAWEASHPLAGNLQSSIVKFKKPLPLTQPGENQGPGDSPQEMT
HNF4A DNA FP: change in binding of human HNF4 alpha to DNA | P41235 | HNF4a-FITC DNA binding, fluorescence polarization, 1 h | 360,000 compounds, 0.3% hits | activity change, % at 10 µM; in the data active means activity change above about 30%, passing the limit was not always enough;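 further: controls were the assay level and a saturating level of protein; the project sought stronger binding though the title names inhibitors; some compounds called inactive have numbers as strong as hits; positive values seem to mean higher polarization but the record does not say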
B2AR ag: agonists of human beta-2 adrenergic receptor inducing internalization; Am2.2-beta2AR cells, FAP receptor internalization, flow cytometry; reference of the scale not given here; 340,000 compounds, 0.43% hits; response, % (test concentration not listed);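 active means response above a set limit, near 3 SD of response in nonfluorescent compounds, cut at about 42% in these data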;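 further: stock transfer was 100 nL into about 11 µL; a reference agonist was the positive control; negative values mostly stem from fluorescent compounds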
Numbers without * were called inactive; i = inactive; · = not tested or not shown; & = joins results of further samples.

SMILES	FGF22 binding	ALR inh	UCH37 inh	Ecoli growth	LANA-H2B inh	HNF4A DNA FP	B2AR ag
Cc1ccc(S(=O)(=O)N(C)C)cc1NC(=O)C(C)OC(=O)C1CCCCC1 (stereo unspecified)	i	1	-0.3	0.68	-4.8	-4.2	1
Cc1nn(-c2ccccn2)c2c1C(c1ccsc1)C1=C(CCCC1=O)N2 (stereo unspecified)	·	-75	-52	0.73	-3.2	-2.5	16
Cc1ccc2c(c1)-c1c(ssc1=S)C(C)(C)N2C(=O)CSC1=NCCS1	i	0	2.6	0.75	5.0	-1.8	10
O=C(c1ccc(N2CCCC2=O)cc1)N1CCN(c2ccc(Cl)cc2)CC1	i	26	-0.1	0.7	-1.1	5.0	-13
Cc1ccc(/C=C2\SC(=S)N(CC3CCCO3)C2=O)o1 (stereo unspecified)	i	-4	3.4	0.7	-0.9	16	8
COCn1c(-c2ccccc2)nc2ccccc21	·	-2	2.7	0.65	1.9	0.8	0
Brc1cnc(N2CCCCC2)nc1N1CCOCC1	·	·	0.8	0.72	4.0	0.3	-5
Cc1noc(C)c1COc1ccc(C(=O)OCC(=O)N2CC3(C)CC2CC(C)(C)C3)cc1 (stereo unspecified)	·	-1	6.9	0.67	1.9	0.7	7
C/C(=N\NC(=O)c1ccccc1C)c1cccc([N+](=O)[O-])c1	·	-18	·	·	14	0.7	2
COC(=O)c1ccc(NC(=O)c2nc(S(=O)(=O)Cc3cccc(C)c3)ncc2Cl)cc1	i	-1	·	·	-0.9	0.6	29
CCCOc1ccc(-c2c(=O)n(O)c3ccccc3[n+]2[O-])cc1	i	·	·	·	-3.7	2.4	8
CCc1nnc(NC(=O)CSc2nc3cccnc3n2C2CCCCC2)s1	·	-4	1.1	0.66	-6.7	2.6	-3
Cc1ccc(Cn2nnc3c(=O)[nH]c(C4CCCN(S(=O)(=O)c5ccccc5)C4)nc32)cc1 (stereo unspecified)	·	-2	2.8	0.69	4.5	1.8	-10
Cc1ccc(NC(=O)CSc2nc(N)cc(=O)[nH]2)cc1S(=O)(=O)N1CCOCC1	i	58	2.9	0.68	-0.5	0.2	-6
O=C(N/N=C/c1sc(N2CCOCC2)nc1-c1ccccc1)c1ccccc1Cl	i	-3	·	·	-1.3	5.5	-1
COc1ccc(S(=O)(=O)N2CCCC2CNC(=O)C(=O)NC2CC2)cc1 (stereo unspecified)	i	-20	2.1	0.7	2.7	2.2	-8
O=C(c1ccc(F)cc1)C1CCN(C(=O)NCc2ccccc2)CC1	i	0	2.4	0.64	4.1	-2.3	8
O=C(CC1NCCc2ccccc21)Nc1ccc(Cl)cc1 (stereo unspecified)	i	5	2.9	0.66	-0.2	1.3	9
CCOC(=O)/C=C1/SCC(=O)N1CC(=O)Nc1ccccc1OC(F)F	i	·	-0.4	0.69	·	31	8
CN1CCC(N(C)C(=O)c2sc3cc(F)ccc3c2Cl)CC1	i	1	2.0	0.72	5.2	100*	-3
CCOc1ccccc1NC(=O)CCN1CCN(S(=O)(=O)c2ccc(Br)cc2)CC1	·	6	5.6	0.73	-0.8	-0.6	-1
CC(C)C[C@H]1CNC(=O)C(=O)N1CC1CCN(CC2CCC(C(C)(C)C)CC2)CC1 (stereo partly specified)	i	·	·	·	·	-2.6	2
CCCS(=O)(=O)N1CCCC(C(=O)NCCc2cccc(C)c2)C1 (stereo unspecified)	i	·	3.7	0.7	-11	0.1	-3
O=C(CN(CCO)c1ccccc1)NC12CC3CC(CC(C3)C1)C2	·	8	2.3	0.66	-0.9	-0.6	9
COc1ccccc1C(C)NC(=O)c1ccc(S(=O)(=O)NCc2ccco2)cc1 (stereo unspecified)	i	2	1.8	0.68	11	2.5	10
Further entries:
SMILES	FGF22 binding	ALR inh	UCH37 inh	Ecoli growth	LANA-H2B inh	HNF4A DNA FP	B2AR ag
CCOC(=O)COc1ccc(C2CC(C)=NN2c2ccccc2)cc1 (stereo unspecified)	i	74	-4.5	0.66	2.7	0.1	11
COc1cc(/C=N/c2oc(-c3ccccc3)cc2C#N)ccc1O	·	·	·	·	0.4	18	-24
O=C(COC(=O)/C=C/C(=O)OCC(=O)NC12CC3CC(CC(C3)C1)C2)NC12CC3CC(CC(C3)C1)C2	·	47	2.6	0.65	-0.3	0.9	26
CCOc1cc(/C=C2/SC(=O)N(CC(=O)N3CCc4ccccc4C3)C2=O)ccc1OCC(=O)O	·	4	8.6	0.71	-4.5	-1.6	-5
CCn1c(=O)cc(SCC(=O)Nc2ccc3c(c2)OCCO3)c2ccccc21	·	-6	1.7	0.67	-1.8	1.9	9
COc1ccc(CCNC(=O)C(=O)c2cn(CC(=O)N3CCOCC3)c3ccccc23)cc1OC	i	36	6.0	0.66	0.6	-0.9	1
CCCn1c(N)c(N2CCCCC2)c(=O)n(CC(=O)Nc2ccccc2C)c1=O	·	14	-1.6	0.71	7.9	-1.1	4
O=C(NCCCN1CCOCC1)c1cnccn1	i	-3	6.9	0.7	4.3	1.0	6
CCCN(Cc1ccccc1)C(=S)Nc1ccc(OCC)cc1	i	-3	-1.6	0.68	2.3	-0.1	-6
Cn1c(NC(=O)/C=C/c2ccco2)cc(=O)n(C)c1=O	i	·	9.9	0.69	2.5	-3.0	-23
Nc1cc(=O)nc(SCC(=O)N2CCN(c3ccccc3)CC2)n1-c1ccccc1	i	51	1.2	0.68	2.6	-2.9	0
COc1cc(C(=O)OCC(=O)Nc2ccc(S(=O)(=O)N3CCCC3)cc2)cc(OC)c1OC	i	-3	0.9	0.67	0.5	2.7	-4
CN(C)C(CNC(=O)c1ccc(NS(=O)(=O)c2ccc(F)c(F)c2)cc1)c1ccccc1 (stereo unspecified)	i	-2	1.9	0.69	-1.1	-0.3	5
O=C(c1cccs1)N1CCN(C(=O)C(c2ccccc2)c2ccccc2)CC1	·	1	1.3	0.7	-0.6	-2.1	-10
O=C(COc1ccccc1Cl)NCCC1=CCCCC1	·	·	5.8	0.69	-1.8	-4.1	-19
O=C(N/N=C/c1cc2cc3c(cc2nc1Cl)OCCO3)c1ccccc1O	·	1	·	·	-2.4	-5.3	8
COc1ccc(S(=O)(=O)NCCN2CCNC2=O)cc1OC	i	-7	4.4	0.67	1.8	-1.9	5
CC1CCCN(c2nc3c(c(=O)n(C)c(=O)n3C)n2Cc2ccccc2)C1 (stereo unspecified)	·	42	3.1	0.68	-3.8	-1.4	-15
Cc1ccc(CN2CCN(C(=O)c3cccc4ccccc34)CC2)cc1	i	0	2.6	0.66	-4.0	-3.9	1
CS(=O)(=O)N(CC(=O)NCCSCc1cccc(Cl)c1)c1ccc2c(c1)OCO2	·	-32	4.2	0.77	7.1	-0.9	2
CCC(=O)Nc1ccc(Br)cn1	i	-12	4.1	0.7	2.9	-3.4	5
CC(=O)OC(Cn1nc(C)cc1C)c1ccccc1 (stereo unspecified)	·	-18	0.1	0.73	3.9	0.5	-6
O=C1Nc2ccc(Br)cc2/C1=N/N=C/C1=C(N2CCOCC2)C(=C\c2ccccc2)/CC1	·	3	·	·	0.9	1.3	31
CC(=O)N/C(=C\c1ccccc1)C(=O)OCC(=O)c1ccc(F)cc1	i	3	-0.3	0.73	-2.8	0.0	3
Cn1ccnc1-c1ccc(-c2nccn2C)cc1	i	-6	-30	0.71	1.1	1.4	2

The final 5 compounds of the section before come first, to join the parts:
SMILES	FGF22 binding	ALR inh	UCH37 inh	Ecoli growth	LANA-H2B inh	HNF4A DNA FP	B2AR ag
CCC(=O)Nc1ccc(Br)cn1	i	-12	4.1	0.7	2.9	-3.4	5
CC(=O)OC(Cn1nc(C)cc1C)c1ccccc1 (stereo unspecified)	·	-18	0.1	0.73	3.9	0.5	-6
O=C1Nc2ccc(Br)cc2/C1=N/N=C/C1=C(N2CCOCC2)C(=C\c2ccccc2)/CC1	·	3	·	·	0.9	1.3	31
CC(=O)N/C(=C\c1ccccc1)C(=O)OCC(=O)c1ccc(F)cc1	i	3	-0.3	0.73	-2.8	0.0	3
Cn1ccnc1-c1ccc(-c2nccn2C)cc1	i	-6	-30	0.71	1.1	1.4	2
Cc1ccc(Nc2cnn(C34CC5CC(CC(CC(=O)O)(C5)C3)C4)c(=O)c2Cl)cc1C	i	5	12	0.66	-6.1	-3.9	2
Cc1cccc(C(=O)Nc2ccc(C(=O)N/N=C/c3ccco3)cc2)c1	i	1	·	·	2.4	-9.3	-12
O=C(c1ccc(Sc2cccc(Cl)c2)c([N+](=O)[O-])c1)N1CCN(c2ccccn2)CC1	i	-4	1.7	0.72	0.9	-2.9	-5
CSc1cccc(NC(=O)COC(=O)C2(c3ccccc3)CC2)c1	i	-14	2.5	0.65	-2.4	-0.9	-1
Cc1cc(C)c2oc(C(=O)Nc3ccc(S(=O)(=O)N4CCC(C)CC4)cc3)cc(=O)c2c1	i	-5	-0.9	0.74	-1.1	2.7	5
O=C(Nc1ccc(C(F)(F)F)cc1[N+](=O)[O-])O[C@H]1[C@H](Cc2ccccc2)NS(=O)(=O)[C@H]2C[C@@H]3C=C[C@]12O3	i	-9	7.9	·	-2.6	0.9	-11
COC(=O)c1c(-c2ccco2)csc1NC(=O)C1CC=CCC1C(=O)O (stereo unspecified)	·	4	3.2	0.69	2.8	5.3	4
CCOC(=O)c1sc(NC(=O)c2ccc(OC(C)=O)cc2)nc1C	i	1	-74	0.65	-1.8	-0.5	4
O=C(CN(Cc1ccccc1)C(=O)c1cc2c(s1)CCC2)NCc1cccs1	·	0	1.1	0.71	-1.6	4.0	-5
Cc1nc(SC(C)C)[nH]c(=O)c1Cc1ccccc1	·	-28	3.6	0.62	1.0	0.1	8
Cc1ccc(OCC(=O)NNC(=O)c2ccc(NC(=O)C3CC3)cc2)c(C)c1	i	-21	1.3	0.71	-0.1	4.8	-12
CCC(=O)N1C(C(=O)O)CSC1c1ccc(OC)cc1 (stereo unspecified)	i	-4	-1.6	0.67	-2.6	0.6	-1
CC(=S)c1c(C)cc2cc(C)ccn12	i	-39	3.8	0.67	-0.9	0.2	0
CCOC(=O)c1nnn(-c2nonc2N)c1-c1cccs1	·	·	2.4	0.72	·	-1.1	22
Cc1onc(-c2ccccc2)c1C(=O)Nc1ccccc1C#N	i	45	5.8&8.0	0.76&0.73	1.0	-2.2&0.7	-10&-5
CCCCNC(=S)N1CCN(Cc2ccc3c(c2)OCO3)CC1	i	-23	0.6	0.64	-3.9	-1.8	-13
Cc1nn(Cc2ccccc2)c(C)c1/C=N/NC(=O)c1ccccc1O	i	43	·	·	1.8	2.5	-7
CC1(C)C2CC[C@]1(C)C(=O)N(CCCCN1CCN(c3ccccn3)CC1)C2=O	i	-4	0.1	0.68	1.4	-0.6	-1
CC(C)OC(=O)CSc1nc2cccnc2n1C1CCCCC1	·	-1	5.2	0.72	-5.0	-0.7	-2
CC(C)Nc1nc(SC(C)C(=O)Nc2ccccc2)nc(N(C)C)n1 (stereo unspecified)	i	5	6.0	0.7	i	2.5	18
COc1ccc(C2/C=C\CN(S(=O)(=O)c3cccs3)CC(=O)N2Cc2ccc(F)cc2)cc1 (stereo unspecified)	i	·	1.7	·	0.1	-1.1	1

Two entries drawn at random from those above, as already listed:
SMILES	FGF22 binding	ALR inh	UCH37 inh	Ecoli growth	LANA-H2B inh	HNF4A DNA FP	B2AR ag
Cc1onc(-c2ccccc2)c1C(=O)Nc1ccccc1C#N	i	45	5.8&8.0	0.76&0.73	1.0	-2.2&0.7	-10&-5
Cc1nc(SC(C)C)[nH]c(=O)c1Cc1ccccc1	·	-28	3.6	0.62	1.0	0.1	8

An excerpt; count on the stated rates, not on these rows.
